RanGTP-Impb inh: inhibitors of RanGTP-importin-beta interaction, primary screen, biochemical, FRET, CFP-Ran, YFP-importin-beta, homogeneous; cell-free CFP-Ran/YFP-importin-beta FRET ratio; 1.1% of 300,000 active; inhibition, % (no concentration beside the values); Ran GTPase (GTP-bound) - importin-beta complex;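 active = most replicates above 15%; inconclusive = exactly half above 15%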;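 note: 0% = DMSO wells and 100% = Ran loaded with GDP instead of GTP; wells of about 40 µL received 100 nL stock; the first replicate is given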
UCH37 DUB inh: inhibitors of human UCH37 deubiquitinase, primary screen, biochemical, Ub-AMC cleavage, fluorescence. Ubiquitin carboxyl-terminal hydrolase isozyme L5 (Homo sapiens), Q9Y5K5. purified proteasome/UCH37. inhibition, % (test concentration not listed). 0.33% of 330,000 active;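 active = mean of two replicates above 20%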;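 note: 0% = compound-free wells with enzyme and 100% = wells lacking proteasome; stock transfer was 100 nL into about 20 µL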
Target sequence (Q9Y5K5 whole entry, looked up): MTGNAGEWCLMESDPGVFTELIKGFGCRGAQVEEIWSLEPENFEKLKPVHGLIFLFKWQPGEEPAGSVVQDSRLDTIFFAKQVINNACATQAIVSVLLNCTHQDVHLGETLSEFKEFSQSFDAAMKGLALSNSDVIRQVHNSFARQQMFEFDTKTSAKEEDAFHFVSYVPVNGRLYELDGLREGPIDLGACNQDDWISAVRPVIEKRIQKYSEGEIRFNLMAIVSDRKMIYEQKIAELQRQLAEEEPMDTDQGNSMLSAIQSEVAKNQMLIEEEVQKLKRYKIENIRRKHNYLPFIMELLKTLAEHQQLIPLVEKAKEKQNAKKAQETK
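Reagent: Ub-AMC substrate; assay system: Proteasome-associated human UCH37 deubiquitinase; controls: no-proteasome and no-compound wells; read-out: % inhibition of Ub-AMC cleavage fluorescence; timing: 30 min preincubation with enzyme, 25 min cleavage at room temperature; signal: AMC fluorescence from Ub-AMC cleavage, excitation 355 nm, emission 460 nm; buffer or medium: Tris-HCl pH 7.4 plus ovalbumin, ATP-MgCl2, DTT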
A1 inh: caspase 3/7 activation in MEF A1-2A-BIM cells, primary screen, A1 inhibitor project, cell-based, luminescence, HTS. Caspase-Glo 3/7 luminescence, 3 h; percent of clofoctol response, vehicle zero. caspase activation, % (no concentration beside the values). 0.066% of 330,000 active. AID 2462, 2010;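 active = over half of replicate activation scores above 10%, or exactly half above 10 with the replicate mean above 10; inconclusive = replicate mean below 10 yet half the replicates above 10; inactive = over half of replicates below 10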;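 note: wells of about 30 µL received 50 nL stock; many hits fall short of the cut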
Beta apoptosis: inhibitors of cytokine-induced beta cell apoptosis, primary screen, luminescence; protection from apoptosis, % (concentration not given with the values); INS-1E cytokine-induced death, ATP luminescence, 48 h; percent of positive-control rescue, neutral wells zero; 0.8% of 300,000 active;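 active = all replicates at 75% or more, or half of them and the mean; inconclusive = half reach 75% but not the mean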;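 note: 0% = cytokine-treated negative control wells and 100% = positive control rescue; higher means more ATP so stronger rescue from cytokine killing; wells of about 40 µL received 100 nL stock; the first replicate is given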
Calb FLC: C. albicans growth inhibition with fluconazole, primary screen, CaCi-2 strain, Alamar Blue fluorescence; C. albicans CaCi-2 (fluconazole-resistant clinical isolate) + fluconazole, 48 h; growth inhibition, % (concentration not given with the values); 0.57% of 300,000 active; AID 1979, 2009;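 active = most replicates above 75%; inconclusive = exactly half above 75%; inactive = most below 75%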;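 note: all wells also contain fluconazole at 8 µg/ml as a sub-toxic cotreatment; 0% = median of DMSO wells and 100% = median of geldanamycin control wells; wells of about 8 µL received 7.5 nL stock; the first replicate is given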
B2AR ag: beta2AR agonists driving receptor internalization, primary screen, cell-based, FAP fluorogen, flow cytometry; AID 504454, 2011; response, % (no concentration beside the values); Am2.2-beta2AR cells; reference of the scale not given here; Beta-2 adrenergic receptor (Homo sapiens), P07550; 0.43% of 340,000 active;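 active = response above a set limit, near 3 SD of response in nonfluorescent compounds, cut at about 42% in these data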;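 note: stock transfer was 100 nL into about 11 µL; a reference agonist was the positive control; negative values mostly stem from fluorescent compounds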
Target sequence (P07550 whole entry, looked up): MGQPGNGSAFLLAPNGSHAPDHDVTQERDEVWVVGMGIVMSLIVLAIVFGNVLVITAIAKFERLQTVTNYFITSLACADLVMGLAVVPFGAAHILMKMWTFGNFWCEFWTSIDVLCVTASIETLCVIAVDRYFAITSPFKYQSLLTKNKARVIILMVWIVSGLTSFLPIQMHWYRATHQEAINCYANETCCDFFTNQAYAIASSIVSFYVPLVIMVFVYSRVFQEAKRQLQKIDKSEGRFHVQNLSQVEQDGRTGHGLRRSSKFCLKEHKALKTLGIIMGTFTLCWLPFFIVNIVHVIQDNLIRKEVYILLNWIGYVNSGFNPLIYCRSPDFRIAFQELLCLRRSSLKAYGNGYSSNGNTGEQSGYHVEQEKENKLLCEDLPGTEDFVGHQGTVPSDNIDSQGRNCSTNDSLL
T cruzi repl: inhibitors of intracellular T. cruzi growth, primary screen, luminescence, NIH3T3 host cells. AID 1885, 2009. inhibition, % (concentration not given with the values). T. cruzi beta-gal in NIH3T3, 90 h. 1.4% of 300,000 active;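 active = mean inhibition across valid replicates above about 55%, limit read from the data; inconclusive = mean below that limit but half or more replicates reach it; inactive = mean below it, under half of replicates reach it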;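 note: signal also drops with host cell toxicity which is not excluded here; 0% = plate median of DMSO wells and 100% = zero luminescence signal; higher percent means less beta-gal luminescence so fewer parasites; stock transfer was 50 nL into about 50 µL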
LANA-H2B inh: blockers of LANA interaction with H2A/H2B – biochemical, FP readout, HTS, primary screen. 0.6% of 320,000 active. cell-free LANA-H2A/H2B peptide, fluorescence polarization. inhibition, % (concentration not given with the values); in the data active = inhibition mostly above about 10%, no sharp cut-off; inactive = mostly below about 6.7%;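 note: stock transfer was 7.5 nL into about 10 µL; 0% = median of vehicle wells and 100% = median of positive control wells; one replicate is shown; the record names a cut of 25% in any replicate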
The depositor's hits bear a star; i = inactive; ? = inconclusive; . = not tested or not shown. Random draw from the library. About 4.3% of those tested had a hit in this group.

entry | SMILES | RanGTP-Impb inh | UCH37 DUB inh | A1 inh | Beta apoptosis | Calb FLC | B2AR ag | T cruzi repl | LANA-H2B inh
1 | O=C(c1ccco1)N1CCN(C(=O)C2CCN(S(=O)(=O)Cc3ccccc3)CC2)CC1 | -0.1 | 3.0 | 0.3 | -13 | 0 | -2 | -23 | -5.1
2 | O=C(Oc1ccc2c(c1)O/C(=C\c1ccncc1)C2=O)c1ccccc1 | -153 | 7.6 | -0.6 | -9 | 5 | 33 | 1 | 4.0
3 | Cn1c(CNC(=O)c2ccc(Cl)cc2)nnc1SCC(=O)NC1CCCC1 | 0.5 | 0.5 | -0.2 | 0 | -4 | 0 | -7 | 5.7
4 | CC(C)(C)C(CO)NC(=O)c1ccc[nH]1 (stereo unspecified) | . | -1.6 | 0.1 | 6 | . | -3 | . | 1.8
5 | Cc1cccc2nc(-c3ccccc3)nc(N3CCC(O)(c4ccc(Cl)cc4)CC3)c12 | -1.3 | -9.2 | 0.1 | 3 | 27 | 15 | 60* | .
6 | CCOC(=O)/C(C#N)=C/c1cc2ccccc2nc1N1CCOCC1 | 0.5 | 5.5 | 1.5 | 3 | -6 | -5 | -6 | -7.5
7 | CCSc1nnc(N)s1 | 0.4 | 3.0 | -0.5 | -1 | 17 | 15 | -15 | 5.5
8 | Cc1c(Cl)cccc1NC(=O)CN1CCN(CCO)CC1 | 4.9 | 0.8 | 0.4 | -14 | 15 | -1 | 7 | -2.5
9 | O=C(NCC(Cl)c1ccc2ccccc2c1)c1c(F)cccc1F (stereo unspecified) | -3.1 | 1.5 | 0.7 | 4 | -1 | 0 | 9 | -3.2
10 | Cc1ccc(C)c(OCC(=O)N/N=C/c2c(C)nn(-c3ccccc3)c2Cl)c1C | 2.6 | . | -0.1 | -2 | -4 | -1 | 13 | -3.2
11 | O=C(Cn1c(=O)n(CCC(=O)N2CCCCC2)c(=O)c2sccc21)NCc1ccccc1 | -1.2 | 4.2 | -1.7 | -3 | 10 | -4 | 3 | -8.7
12 | O=C(CCc1ccc(S(=O)(=O)N2CCOCC2)cc1)N/N=C/c1cccc(O)c1 | -1.8 | . | -0.8 | 0 | 23 | 3 | -14 | 7.3
13 | CCOc1ccc2nc(SCC(=O)Nc3nonc3C)[nH]c2c1 | -0.7 | . | 1.3 | -4 | 16 | 4 | -10 | -3.3
14 | O=c1c2ccccc2ncn1-c1ccccc1[N+](=O)[O-] | -5.3 | 1.8 | -0.8 | . | 13 | -6 | -2 | -2.3
15 | C=CCn1cc(/C=N\NC(=O)c2cc3c(ccc4ccccc43)o2)c2ccccc21 | 6.1 | . | 0.3 | -2 | -1 | 6 | -23 | -7.3
16 | CCn1c(C)nnc1SCC(=O)Nc1ccc(C(C)=O)cc1 | -2.8 | 4.1 | -0.2 | -4 | -6 | -5 | -7 | 3.4
17 | COc1ccc2[nH]c(C(=O)O)c(CCNC(=O)/C=C/c3ccc(O)c(OC)c3)c2c1 | -1.5 | -3.0 | 0.9 | -1 | -2 | -4 | -11 | -4.6
18 | N#CCOC(=O)c1c2c(nc3ccccc13)CCC2 | -0.3 | -17 | 0.9 | 1 | 7 | 4 | 4 | 4.6
19 | Cc1cccc(C(=O)Nc2ccc3c(c2)C(=O)NC3=O)c1 | -1.1 | -97 | -3.5 | -2 | -10 | 1 | -4 | 1.1
20 | CCCCOc1ccc(Cc2n[nH]c(=S)n2N)cc1 | 0.4 | 5.1 | -0.4 | -3 | -38 | -6 | 11 | -1.7
21 | NC1=NC[C@@H](Cc2ccc(O)cc2)N1CCc1cccc2ccccc12 | -0.4 | 1.5 | -0.3 | 0 | -11 | 3 | -10 | 1.4
22 | CCC1=Nc2cc(C(=O)O)ccc2Sc2ccc(Cl)cc21 | -3.0 | 4.1 | -0.1 | -2 | 18 | 9 | -2 | -1.1
23 | CCOC(=O)c1cc2c(ccn2C)n1CC(=O)N1CCN(c2ccccc2)CC1 | 3.7 | 5.9 | 0.8 | 0 | 0 | 2 | 6 | -5.4
24 | CCCCN1C(=O)CC(Sc2ncccc2C(=O)O)C1=O (stereo unspecified) | 2.1 | -1.2 | -0.4 | -18 | 25 | 1 | -22 | 2.0
25 | CC(C)OC(=O)c1c(F)c(F)c(N2CCOCC2)c(F)c1F | 2.7 | 4.7 | -0.3 | 3 | -18 | 10 | -10 | -3.0
26 | CN(C)NC(=S)NC1(C)CCS(=O)(=O)C1 (stereo unspecified) | 1.2 | 4.2 | 0.3 | -4 | 3 | -1 | -16 | -0.8
27 | C=CCOc1ccc(CNc2ccc(NC(=O)CCC)cc2)cc1OCC | 5.1 | 2.6 | -0.1 | 1 | 3 | -24 | 4 | 2.9
28 | COc1cccc(C(=O)NCCS(=O)(=O)N2CCN(C(=O)c3ccco3)CC2)c1 | -0.9 | 2.8 | 0.0 | 1 | 9 | -3 | 4 | -0.7
29 | COc1ccccc1-n1cnc2cc(C(=O)NCC3CCCO3)ccc21 (stereo unspecified) | -1.9 | -0.2 | 0.2 | 1 | 4 | 10 | 14 | -3.7
30 | O=C(NCc1ccccc1)C1CCCN(S(=O)(=O)c2ccc(Br)cc2)C1 (stereo unspecified) | 0.5 | 5.0 | 1.2 | -4 | -2 | -4 | 12 | -0.1
31 | C=CCN(CC(=O)NCc1ccccc1)C(=O)c1csnn1 | -2.4 | 1.5 | . | 1 | ? | 17 | -7 | -1.0
32 | Cc1cccc(N(C(=O)Cn2nnc(-c3ccccc3F)n2)C(C(=O)NC(C)(C)C)c2ccncc2)c1 (stereo unspecified) | -0.8 | 3.0 | -0.1 | 1 | ? | -6 | 14 | -0.1
33 | Cc1ccc2[nH]c(C)c(CCN(Cc3cccnc3)C(=S)NC(C)(C)C)c2c1 | -8.2 | 2.5 | 0.1 | 0 | 7 | -12 | 34 | 1.2
34 | COCCNCC(O)CON=C1c2ccccc2-c2ccccc21 (stereo unspecified) | -4.4 | 5.5 | -0.1 | . | -2 | 3 | -3 | -3.4
35 | CN(Cc1cnn(Cc2ccccc2)c1)C(=O)c1cccc(S(=O)(=O)N2CCOCC2)c1 | . | 5.3 | 0.5 | 16 | . | -8 | . | 4.1
36 | NC1=NC(=O)/C(=C/c2cn(CCC(=O)O)nc2-c2ccc(Cl)cc2)S1 | -0.2 | 15 | 0.0 | -3 | 5 | -1 | 2 | 9.8
37 | COc1ccc(OCc2nnc(SC3CCOC3=O)n2-c2ccccc2)cc1 (stereo unspecified) | 0.0 | 1.5 | 0.8 | -6 | 10 | -11 | -18 | 0.6
38 | COc1ccccc1NC(=O)CN1CCN(C(=O)c2ccco2)CC1 | 0.3 | 2.8 | 1.0 | -7 | -7 | 1 | -4 | 1.4
39 | CCOC(=O)C1=C(CC)OC(N)=C(C#N)C1c1ccc(OC)cc1OC (stereo unspecified) | 0.0 | 5.6 | -1.0 | 0 | -6 | -2 | -8 | -3.5
40 | O=c1ccc(-c2ccccc2)nn1Cc1ccc(F)cc1Cl | 1.2 | 2.7 | 0.4 | -20 | 2 | -14 | 1 | 0.9

Overlap with the part before: 5 compounds; new compounds follow.
entry | SMILES | RanGTP-Impb inh | UCH37 DUB inh | A1 inh | Beta apoptosis | Calb FLC | B2AR ag | T cruzi repl | LANA-H2B inh
36 | NC1=NC(=O)/C(=C/c2cn(CCC(=O)O)nc2-c2ccc(Cl)cc2)S1 | -0.2 | 15 | 0.0 | -3 | 5 | -1 | 2 | 9.8
37 | COc1ccc(OCc2nnc(SC3CCOC3=O)n2-c2ccccc2)cc1 (stereo unspecified) | 0.0 | 1.5 | 0.8 | -6 | 10 | -11 | -18 | 0.6
38 | COc1ccccc1NC(=O)CN1CCN(C(=O)c2ccco2)CC1 | 0.3 | 2.8 | 1.0 | -7 | -7 | 1 | -4 | 1.4
39 | CCOC(=O)C1=C(CC)OC(N)=C(C#N)C1c1ccc(OC)cc1OC (stereo unspecified) | 0.0 | 5.6 | -1.0 | 0 | -6 | -2 | -8 | -3.5
40 | O=c1ccc(-c2ccccc2)nn1Cc1ccc(F)cc1Cl | 1.2 | 2.7 | 0.4 | -20 | 2 | -14 | 1 | 0.9
41 | CC(C)=C1SC(N2CCN(c3cccc(Cl)c3)CC2)=NC1=O | -2.4 | 2.8 | 0.1 | -7 | ? | -5 | 4 | 1.3
42 | CC(=O)Nc1cccc(C(=O)OC(C)C(=O)NC2CCCc3ccccc32)c1 (stereo unspecified) | 0.9 | 3.0 | 0.4 | . | -1 | -8 | -13 | 4.9
43 | CCc1ccc(OCc2nnc(SCC(=O)NC3CCCCC3)o2)cc1 | 0.3 | 0.7 | -0.8 | -2 | -18 | -5 | -15 | -5.6
44 | CCCN1CN(CCc2ccccc2)CNC1=S | 1.9 | 1.3 | 0.3 | -9 | 1 | -1 | -14 | 1.5
45 | CCOc1ccc(Br)cc1S(=O)(=O)N1CCCC1 | 0.5 | -1.0 | -0.1 | 0 | 0 | -4 | 8 | 3.2
46 | COC(=O)c1ccc(CSc2nc3ccccc3c(=O)n2CC(C)C)o1 | 4.9 | 1.6 | 0.0 | 1 | -13 | -23 | 14 | 1.7
47 | Cc1ccc(S(=O)(=O)N(CC(=O)N(C)C)c2cccc([N+](=O)[O-])c2)cc1 | . | 1.4 | 0.3 | -7 | 19 | -2 | -3 | 0.6
48 | CN(C)S(=O)(=O)N(CC(=O)N1CCC(Cc2ccccc2)CC1)c1ccccc1 | 3.4 | 2.4 | -0.1 | -7 | -4 | 2 | -5 | -0.3
49 | COC(=O)c1ccc(/C=C2\CCn3c2nc2cc(C(=O)O)ccc2c3=O)cc1 | -0.1 | i | 0.1 | 0 | -1 | 9 | -14 | 1.6
50 | CC1CCN(C(=O)C2CCN(S(=O)(=O)c3cccc4cccnc34)CC2)CC1 | -1.5 | 2.0 | -1.2 | 1 | -6 | -2 | 1 | -5.0
51 | COc1ccccc1C(=O)Nc1cc2cc(Cl)ccc2oc1=O | 1.7 | -51 | 0.4 | -6 | 2 | -22 | -2 | 1.1
52 | CC1(C)CC(=O)/C(=C(/O)CCCN2C(=O)c3ccccc3C2=O)C(=NC(C)(C)C)C1 | -3.3 | . | 1.3 | -4 | -7 | 0 | 8 | -2.4
53 | O=C(Cc1c(Cl)cccc1Cl)NCCc1ccc(Cl)cc1 | -0.2 | 1.1 | 1.5 | -6 | -14 | 1 | 26 | -1.2
54 | O=C1c2ccccc2C2(c3ccc(F)cc3)NCCN12 (stereo unspecified) | -1.9 | -0.8 | -0.3 | -3 | 14 | 6 | 0 | 4.6
55 | COc1ccc(/C=C2\SC(=O)N(CCC(=O)NC3CCS(=O)(=O)C3)C2=O)cc1 (stereo unspecified) | 0.3 | 14 | -2.5 | -1 | -9 | -3 | -5 | 2.8
